# Ecoli rRNA inh – reduced GFP signal of wild-type E. coli, primary screen, bacterial rRNA inhibitor project, GFP/RFP fluorescence, OD600, single point; E. coli WT GFP vs humanized-ribosome RFP mutants, 24 h; stronger effect = lower value; DMSO median 0, no signal -100; GFP signal change (wild-type ribosome), % (concentration not given with the values); 350,000 compounds, 1.6% hits;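 active = significant combined selectivity score with lowered wild-type GFP, culture density cut under 30%, mutant RFP and density less affected; inactive = any of these conditions unmet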; note: one replicate is shown; some compounds called inactive have numbers as strong as hits
# FGF22 binding – binders of human FGF22 protein, primary screen, FGF22 synaptogenesis inhibitor project, biophysical, thermal shift, single point. calls only at 9.99 µM. AID 651658, 2012. recombinant FGF22 thermal shift, SYPRO orange fluorescence; percent of sucrose octasulfate shift, DMSO zero. 340,000 compounds, 1.5% hits. Fibroblast growth factor 22 (Homo sapiens), Q9HCT0;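 active = melting point raised past a set limit in the mean and every replicate; three in four hits are not shown here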
# Target sequence (Q9HCT0 whole entry, looked up): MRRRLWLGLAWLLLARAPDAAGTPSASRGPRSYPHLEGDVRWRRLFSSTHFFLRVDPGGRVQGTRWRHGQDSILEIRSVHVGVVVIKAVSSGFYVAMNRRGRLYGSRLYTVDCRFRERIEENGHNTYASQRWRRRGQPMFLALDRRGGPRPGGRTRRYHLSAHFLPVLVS
# Ecoli rRNA inh OD600 – further read-out of Ecoli rRNA inh, marked with its call; OD600 change, %; measured here: OD600 growth;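 optical density of the mix in the first replicate; 0 = DMSO median and -100 = no signal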
# Ecoli rRNA inh RFP – also measured in Ecoli rRNA inh; calls as there; RFP signal change, %; measured here: RFP humanized mutant strains;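 first replicate; 0 = DMSO median and -100 = no signal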
# * hit, by the source's call; i = inactive; + = active, no number. These rows are one share of the data, so the mix of outcomes need not match the whole.
molecule	Ecoli rRNA inh	Ecoli rRNA inh OD600	Ecoli rRNA inh RFP	FGF22 binding
O=C(C[C@@H]1CC[C@H]2[C@@H](COC[C@@H](O)CN2Cc2ccc3c(c2)OCO3)O1)N1CCOCC1	0	5	-0.5	i
COc1ccc(S(=O)(=O)N(C)C[C@H]2Oc3ccc(NS(=O)(=O)c4ccc(F)cc4)cc3C(=O)N([C@@H](C)CO)C[C@H]2C)cc1	-2	-14	6.1	i
COc1ccc(NC(=O)Nc2ccc3c(c2)C(=O)N([C@@H](C)CO)C[C@H](C)[C@H](CN(C)C(=O)Nc2c(C)noc2C)O3)cc1	4	5	-0.6	i
CN1C(=O)c2cc(NC(=O)c3cccc(F)c3)ccc2OC[C@H]2O[C@@H](CC(=O)NCc3ccccc3)CC[C@H]21	-8	-18	2.9	+
C[C@@H]1CCCCO[C@H](CN(C)C(=O)c2ccccc2)[C@@H](C)CN([C@H](C)CO)C(=O)c2cc(NS(=O)(=O)c3ccccc3)ccc2O1	1	2	-1.8	i
C[C@@H]1CN([C@H](C)CO)C(=O)c2cc(NC(=O)NC3CCCCC3)ccc2O[C@@H]1CN(C)Cc1ccc(-c2ccccc2)cc1	-3	-2	2.1	i
COCC(=O)Nc1ccc2c(c1)[C@@H]1C[C@@H](CC(=O)NCc3ccccc3OC)O[C@H](CO)[C@@H]1O2	1	1	-0.6	i
O=C(C[C@@H]1CC[C@H](NS(=O)(=O)c2ccc(F)cc2)[C@@H](CO)O1)N1CCN(c2ccccc2)CC1	-8	-6	-1.4	i
CC(C)C#Cc1ccc2c(c1)O[C@H](CN(C)C(=O)C1CC1)[C@H](C)CN([C@H](C)CO)S2(=O)=O	0	1	2.9	i
C[C@H](CO)N1C[C@H](C)[C@@H](CN(C)C(=O)Nc2ccccc2)Oc2c(NC(=O)C3CC3)cccc2C1=O	4	6	-0.1	i
COc1ccccc1CN1[C@@H]2CN(C(=O)c3ccc(F)cc3)c3ccccc3[C@@H]2[C@@H]1CO	-3	-10	0.1	i
O=C(Cc1ccccn1)N[C@@H]1C=C[C@@H](CC(=O)N2CCCCC2)O[C@H]1CO	3	7	1.2	i
C[C@@H]1CN([C@@H](C)CO)C(=O)c2cc(NC(=O)c3ccccc3)ccc2O[C@@H](C)CCCCO[C@@H]1CN(C)C(=O)c1ccccc1	2	-1	-0.1	i
Cc1noc(C)c1S(=O)(=O)N(C)C[C@@H]1Oc2ccc(NC(=O)Nc3ccc(C(F)(F)F)cc3)cc2CC(=O)N([C@@H](C)CO)C[C@@H]1C	2	-5	0.4	i
COCC(=O)N1C[C@@H]2[C@H](c3ccccc31)[C@@H](CO)N2Cc1ccccc1F	7	4	-1.8	i
C[C@@H]1CN([C@H](C)CO)C(=O)c2cc(C3=CCCCC3)cnc2O[C@H]1CN(C)C(=O)C1CCOCC1	5	1	-3.6	i
O=C(C[C@@H]1C=C[C@H](NC(=O)Nc2ccc(C(F)(F)F)cc2)[C@@H](CO)O1)NCc1ccccn1	-4	-4	-1.4	i
COc1ccc(OCC2CN(Cc3ccccc3)S(=O)(=O)CCO2)cc1 (stereo not drawn)	-23	-29	-11	i
CC(C)NC(=O)N(C)C[C@H]1OCCCC[C@@H](C)Oc2ccc(NC(=O)c3ccccc3)cc2C(=O)N([C@@H](C)CO)C[C@@H]1C	-3	3	-1.3	i
O=C(Nc1ccccc1)N[C@@H]1CC[C@@H](CCn2cc(C3(O)CCCC3)nn2)O[C@H]1CO	-3	5	-4.9	i
COc1ccc(CNC(=O)C[C@H]2CC[C@H](NC(=O)c3cccc(F)c3)[C@@H](CO)O2)cc1	2	7	0.9	i
C[C@H](CO)N1C[C@H](C)[C@@H](CN(C)Cc2ccc(C(F)(F)F)cc2)OCCCC[C@H](C)Oc2ccc(N(C)C)cc2C1=O	-7	-27	18	i
C[C@H](CO)N1C[C@H](C)[C@H](CN(C)C(=O)Nc2ccc(F)cc2)OCCCC[C@H](C)Oc2ccc(NC(=O)C3CCCCC3)cc2C1=O	-1	3	-2.0	i
C[C@H](CO)N1C[C@H](C)[C@@H](CN(C)C(=O)Nc2cccc3ccccc23)Oc2ccc(N(C)C)cc2CC1=O	3	12	0.9	i
CCC(=O)Nc1ccc2c(c1)OC[C@@H](C)N(CC1CCOCC1)C[C@H](C)[C@@H](OC)CN(C)C2=O	0	-2	0.7	i
C[C@@H]1CN([C@@H](C)CO)C(=O)c2cc(NC(=O)CCCN(C)C)ccc2O[C@@H](C)CCCCO[C@@H]1CN(C)S(C)(=O)=O	1	11	0.5	i
Cc1ccccc1-c1ccc([C@H]2[C@H](CO)N3CCCCN(CC4CC4)C[C@@H]23)cc1	1	0	0.8	i
C[C@@H]1CN([C@H](C)CO)C(=O)c2cc(NC(=O)Nc3cccc4ccccc34)ccc2O[C@H]1CN(C)C(=O)Nc1cccc2ccccc12	0	11	3.6	i
C[C@H]1CN([C@@H](C)CO)C(=O)Cc2cc(NC(=O)Nc3cccc4ccccc34)ccc2O[C@H]1CN(C)S(=O)(=O)c1ccc(F)cc1	0	1	0.2	i
CO[C@H]1CN(C)C(=O)c2cc(NC(=O)Nc3cccc(F)c3)ccc2OC[C@@H](C)N(C)C[C@@H]1C	-2	-2	1.2	i
C[C@@H]1CN([C@H](C)CO)C(=O)c2cccc(NC(=O)Nc3ccc4c(c3)OCO4)c2O[C@H]1CN(C)S(=O)(=O)c1ccc(F)cc1	-5	-4	1.2	i
OC[C@H]1[C@@H](c2ccccc2)C2(CN(CC3CC3)C2)N1Cc1nccs1	-2	-3	3.0	i
CCCNC(=O)C[C@H]1CC[C@H]2[C@H](COc3ccc(NC(=O)c4ccccc4)cc3C(=O)N2C)O1	0	3	-1.6	i
O=C(C[C@H]1CC[C@@H](NC(=O)Nc2ccccc2)[C@H](CO)O1)NCc1cccc(F)c1	1	1	-2.4	i
CN(C)CC(=O)Nc1ccc2c(c1)[C@H]1C[C@@H](CC(=O)NC3CCCCC3)O[C@@H](CO)[C@H]1O2	2	5	1.1	i
COCC(=O)N1[C@@H]2CNc3ccccc3[C@@H]2[C@@H]1CO	5	7	-0.7	i
CNC(=O)C[C@H]1CC[C@H]2[C@@H](COC[C@@H](O)CN2C(=O)Nc2ccc(Cl)c(Cl)c2)O1	-58	-80	-17	i
CCCNC(=O)N[C@H]1CC[C@H](CC(=O)NCCc2ccccc2)O[C@H]1CO	4	1	-0.8	i
C[C@@H]1CCCCO[C@@H](CN(C)C(=O)c2ccccc2)[C@H](C)CN([C@@H](C)CO)C(=O)c2cc(NC(=O)C3CCCCC3)ccc2O1	-5	-4	1.8	i
Cc1ccc(S(=O)(=O)N2C[C@@H](O)COC[C@@H]3O[C@H](CC(=O)NCCN4CCCCC4)CC[C@H]32)cc1	3	-4	-3.7	i
COc1ccc2c3c(n(C)c2c1)[C@H](CO)N(C(=O)c1ccncc1)CC31CN(CC2CC2)C1	2	-13	-3.7	i
C[C@@H]1CN([C@H](C)CO)C(=O)c2cccc(N(C)C)c2O[C@H]1CN(C)CC1CC1	0	2	-0.8	i
O=C(C[C@@H]1CC[C@H](NC(=O)C2CCOCC2)[C@@H](CO)O1)NCC1CCCCC1	1	8	0.1	i
COc1ccc(S(=O)(=O)N(C)C[C@@H]2Oc3ccc(NS(=O)(=O)c4ccc(F)cc4)cc3C(=O)N([C@@H](C)CO)C[C@@H]2C)cc1	-2	-1	2.8	i
CO[C@@H]1CN(C)C(=O)c2cc(NC(C)=O)ccc2OC[C@@H](C)N(C(=O)CN(C)C)C[C@H]1C	2	3	-1.4	i
COc1ccc(NC(=O)N[C@@H]2CC[C@H](CCn3cc(C4(O)CCCC4)nn3)O[C@H]2CO)cc1	-3	0	0.8	i
OC[C@@H]1[C@@H](c2ccc(C#Cc3ccccc3F)cc2)[C@H]2CN(Cc3cncnc3)CCCCN12	4	-10	6.3	i
C[C@H]1CN([C@@H](C)CO)C(=O)c2cc(NS(=O)(=O)c3ccc(Cl)cc3)ccc2O[C@H]1CN(C)Cc1ccccc1	-1	-10	4.8	i
COCC(=O)N1[C@H](CO)[C@H](c2ccccc2C2=CCCC2)[C@@H]1C#N	2	-11	-0.4	i
CC(=O)N1[C@H](C(=O)NCC2CC2)[C@@H](CO)[C@@H]2Cn3c(ccc(C4=CCCC4)c3=O)[C@@H]21	0	1	0.9	i
COc1ccc2c3c(n(C)c2c1)[C@H](CO)N(S(C)(=O)=O)CC31CCN(CC2CCCCC2)CC1	0	0	-0.2	i
O=C(Nc1ccc(Cl)cc1)N[C@@H]1CC[C@H](CCn2cc(Cc3ccccc3)nn2)O[C@H]1CO	-4	-25	0.8	i
CC(C)NC(=O)N1[C@H](CO)[C@H]2c3ccccc3N(C)C[C@H]21	4	11	-1.5	i
C[C@@H]1CCCCO[C@@H](CN(C)C(=O)Cc2ccccc2)[C@H](C)CN([C@@H](C)CO)C(=O)c2cc(N(C)C)ccc2O1	-1	-3	2.0	i
O=C(C1CCOCC1)N1CC(=O)N2[C@H](C1)[C@@H](c1ccc(/C=C/c3ccccc3)cc1)[C@@H]2CO	-3	6	2.6	i
Cc1noc(C)c1S(=O)(=O)N(C)C[C@@H]1OCCCC[C@@H](C)Oc2ccc(NC(=O)C3CCCCC3)cc2C(=O)N([C@@H](C)CO)C[C@@H]1C	2	-10	-0.9	i
C[C@H](CO)N1C[C@H](C)[C@H](CN(C)CC2CCOCC2)Oc2ncc(C#CCc3ccccc3)cc2C1=O	11	9	1.1	i
O=C(Cc1cccnc1)N[C@@H]1CC[C@H](CCn2cc(-c3ccccc3F)nn2)O[C@@H]1CO	2	3	-2.2	i
O=C([C@H]1[C@H](CO)[C@H]2Cn3c(ccc(-c4cccnc4)c3=O)[C@@H]1N2Cc1ccncc1)N1CCOCC1	4	7	0.2	i
Cn1c(=O)c2c(c3ccccc31)OC(C)(C)C=C2	-10	-3	-4.8	i

# A draw from above in order of molar mass, ascending.
molecule	Ecoli rRNA inh	Ecoli rRNA inh OD600	Ecoli rRNA inh RFP	FGF22 binding
C[C@@H]1CN([C@H](C)CO)C(=O)c2cccc(N(C)C)c2O[C@H]1CN(C)CC1CC1	0	2	-0.8	i
O=C(C[C@@H]1CC[C@H](NC(=O)C2CCOCC2)[C@@H](CO)O1)NCC1CCCCC1	1	8	0.1	i
COc1ccc2c3c(n(C)c2c1)[C@H](CO)N(C(=O)c1ccncc1)CC31CN(CC2CC2)C1	2	-13	-3.7	i
OC[C@@H]1[C@@H](c2ccc(C#Cc3ccccc3F)cc2)[C@H]2CN(Cc3cncnc3)CCCCN12	4	-10	6.3	i
O=C([C@H]1[C@H](CO)[C@H]2Cn3c(ccc(-c4cccnc4)c3=O)[C@@H]1N2Cc1ccncc1)N1CCOCC1	4	7	0.2	i
COc1ccc2c3c(n(C)c2c1)[C@H](CO)N(S(C)(=O)=O)CC31CCN(CC2CCCCC2)CC1	0	0	-0.2	i
C[C@H](CO)N1C[C@H](C)[C@H](CN(C)CC2CCOCC2)Oc2ncc(C#CCc3ccccc3)cc2C1=O	11	9	1.1	i
C[C@@H]1CCCCO[C@@H](CN(C)C(=O)Cc2ccccc2)[C@H](C)CN([C@@H](C)CO)C(=O)c2cc(N(C)C)ccc2O1	-1	-3	2.0	i
COc1ccc(S(=O)(=O)N(C)C[C@@H]2Oc3ccc(NS(=O)(=O)c4ccc(F)cc4)cc3C(=O)N([C@@H](C)CO)C[C@@H]2C)cc1	-2	-1	2.8	i
Cc1noc(C)c1S(=O)(=O)N(C)C[C@@H]1OCCCC[C@@H](C)Oc2ccc(NC(=O)C3CCCCC3)cc2C(=O)N([C@@H](C)CO)C[C@@H]1C	2	-10	-0.9	i

# New compounds follow
molecule	Ecoli rRNA inh	Ecoli rRNA inh OD600	Ecoli rRNA inh RFP	FGF22 binding
COCC(=O)N1C[C@@H](C)[C@@H](OC)CN(C)C(=O)c2ccc(NC(=O)c3cnccn3)cc2OC[C@@H]1C	4	8	-2.3	i
COc1ccc(CNC(=O)C[C@H]2CC[C@H]3[C@H](COc4ccc(NC(C)=O)cc4C(=O)N3C)O2)cc1	-1	-3	-0.9	i
C[C@H]1CN([C@@H](C)CO)C(=O)c2cccc(NS(=O)(=O)c3ccc(F)cc3)c2O[C@@H]1CN(C)Cc1ccccc1	1	1	0.4	i
O=C(C[C@@H]1CC[C@H]2[C@@H](COC[C@H](O)CN2C(=O)Nc2ccccc2)O1)NCCCN1CCOCC1	-7	7	-1.4	i
C[C@H]1CN([C@@H](C)CO)C(=O)c2cccc(NC(=O)C3CCOCC3)c2O[C@@H]1CN(C)S(C)(=O)=O	-1	4	-4.1	i
CCC(=O)Nc1ccc2c(c1)C(=O)N(C)[C@@H]1CC[C@H](CC(=O)NCCc3ccccc3)O[C@H]1CO2	4	6	-4.9	i
CO[C@H]1CN(C)C(=O)c2cc(NS(C)(=O)=O)ccc2OC[C@H](C)N(Cc2nccs2)C[C@@H]1C	0	0	-0.7	i
CO[C@@H]1CN(C)C(=O)c2cc(NC(=O)c3cc(C)on3)ccc2OC[C@@H](C)NC[C@H]1C	4	-1	0.0	i

# Bioassay records as filed in PubChem.
